Screens (PubChem BioAssay)
UCH37 inh: inhibitors of human UCH37 deubiquitinase, primary screen, biochemical, Ub-AMC cleavage, fluorescence. inhibition, % (no concentration beside the values). 330,000 tested, 0.33% active. Ubiquitin carboxyl-terminal hydrolase isozyme L5 (Homo sapiens), Q9Y5K5. purified proteasome/UCH37;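 active = mean of two replicates above 20%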;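 also: 0% = compound-free wells with enzyme and 100% = wells lacking proteasome; stock transfer was 100 nL into about 20 µL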
Target sequence (Q9Y5K5 whole entry, looked up): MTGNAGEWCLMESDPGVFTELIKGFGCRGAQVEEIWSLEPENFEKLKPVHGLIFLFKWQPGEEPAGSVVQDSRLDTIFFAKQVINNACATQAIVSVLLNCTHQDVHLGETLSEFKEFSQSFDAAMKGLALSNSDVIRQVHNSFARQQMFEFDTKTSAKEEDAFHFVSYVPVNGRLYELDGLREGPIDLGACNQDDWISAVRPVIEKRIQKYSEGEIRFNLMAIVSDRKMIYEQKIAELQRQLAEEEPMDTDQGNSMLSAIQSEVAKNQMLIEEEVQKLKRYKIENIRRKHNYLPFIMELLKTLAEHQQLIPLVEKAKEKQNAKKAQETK
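Reagent: Ub-AMC substrate; assay system: Proteasome-associated human UCH37 deubiquitinase; controls: no-proteasome and no-compound wells; read-out: % inhibition of Ub-AMC cleavage fluorescence; timing: 30 min preincubation with enzyme, 25 min cleavage at room temperature; signal: AMC fluorescence from Ub-AMC cleavage, excitation 355 nm, emission 460 nm; buffer or medium: Tris-HCl pH 7.4 plus ovalbumin, ATP-MgCl2, DTT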
Bfl-1 A1 inh: caspase 3/7 activation in MEF A1-2A-BIM cells, primary screen, A1 inhibitor project, cell-based, luminescence, HTS | Caspase-Glo 3/7 luminescence, 3 h; percent of clofoctol response, vehicle zero | caspase activation, % (test concentration not listed) | 330,000 tested, 0.066% active;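 active = over half of replicate activation scores above 10%, or exactly half above 10 with the replicate mean above 10; inconclusive = replicate mean below 10 yet half the replicates above 10; inactive = over half of replicates below 10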;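 also: wells of about 30 µL received 50 nL stock; many hits fall short of the cut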
Beta cell apopt: inhibitors of cytokine-induced beta cell apoptosis, primary screen, luminescence; protection from apoptosis, % (test concentration not listed); 300,000 tested, 0.8% active; INS-1E cytokine-induced death, ATP luminescence, 48 h; percent of positive-control rescue, neutral wells zero; AID 435005, 2010;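 active = all replicates at 75% or more, or half of them and the mean; inconclusive = half reach 75% but not the mean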;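 also: 0% = cytokine-treated negative control wells and 100% = positive control rescue; higher means more ATP so stronger rescue from cytokine killing; wells of about 40 µL received 100 nL stock; the first replicate is given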
B2AR ag: beta2AR agonists driving receptor internalization, primary screen, cell-based, FAP fluorogen, flow cytometry; Beta-2 adrenergic receptor (Homo sapiens), P07550; Am2.2-beta2AR cells; reference of the scale not given here; response, % (test concentration not listed); 340,000 tested, 0.43% active;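 active = response above a set limit, near 3 SD of response in nonfluorescent compounds, cut at about 42% in these data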;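 also: stock transfer was 100 nL into about 11 µL; a reference agonist was the positive control; negative values mostly stem from fluorescent compounds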
Target sequence (P07550 whole entry, looked up): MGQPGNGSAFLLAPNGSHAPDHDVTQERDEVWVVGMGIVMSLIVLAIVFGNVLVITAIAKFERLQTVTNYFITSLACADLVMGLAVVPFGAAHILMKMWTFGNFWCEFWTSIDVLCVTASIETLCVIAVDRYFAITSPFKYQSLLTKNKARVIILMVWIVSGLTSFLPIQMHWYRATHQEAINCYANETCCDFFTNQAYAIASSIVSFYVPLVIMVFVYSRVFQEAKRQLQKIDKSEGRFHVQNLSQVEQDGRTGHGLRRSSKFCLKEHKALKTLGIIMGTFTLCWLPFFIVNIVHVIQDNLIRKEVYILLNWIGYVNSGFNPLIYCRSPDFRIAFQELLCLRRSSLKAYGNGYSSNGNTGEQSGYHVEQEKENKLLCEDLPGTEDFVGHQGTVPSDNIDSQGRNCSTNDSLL
RanGTP-Imp inh: inhibitors of RanGTP-importin-beta interaction, primary screen, biochemical, FRET, CFP-Ran, YFP-importin-beta, homogeneous. Ran GTPase (GTP-bound) - importin-beta complex. cell-free CFP-Ran/YFP-importin-beta FRET ratio. inhibition, % (test concentration not listed). 300,000 tested, 1.1% active. AID 2216, 2009;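 active = most replicates above 15%; inconclusive = exactly half above 15%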;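 also: 0% = DMSO wells and 100% = Ran loaded with GDP instead of GTP; wells of about 40 µL received 100 nL stock; the first replicate is given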
T cruzi repl: inhibitors of intracellular T. cruzi growth, primary screen, luminescence, NIH3T3 host cells | inhibition, % (test concentration not listed) | AID 1885, 2009 | T. cruzi beta-gal in NIH3T3, 90 h | 300,000 tested, 1.4% active;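 active = mean inhibition across valid replicates above about 55%, limit read from the data; inconclusive = mean below that limit but half or more replicates reach it; inactive = mean below it, under half of replicates reach it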;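 also: signal also drops with host cell toxicity which is not excluded here; 0% = plate median of DMSO wells and 100% = zero luminescence signal; higher percent means less beta-gal luminescence so fewer parasites; stock transfer was 50 nL into about 50 µL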
Calb FLC: C. albicans growth inhibition with fluconazole, primary screen, CaCi-2 strain, Alamar Blue fluorescence; AID 1979, 2009; C. albicans CaCi-2 (fluconazole-resistant clinical isolate) + fluconazole, 48 h; 300,000 tested, 0.57% active; growth inhibition, % (no concentration beside the values);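 active = most replicates above 75%; inconclusive = exactly half above 75%; inactive = most below 75%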;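 also: all wells also contain fluconazole at 8 µg/ml as a sub-toxic cotreatment; 0% = median of DMSO wells and 100% = median of geldanamycin control wells; wells of about 8 µL received 7.5 nL stock; the first replicate is given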
LANA-H2A inh: blockers of LANA interaction with H2A/H2B – biochemical, FP readout, HTS, primary screen | AID 2629, 2010 | inhibition, % (concentration not given with the values) | cell-free LANA-H2A/H2B peptide, fluorescence polarization | Protein LANA1 (Human herpesvirus 8 type P (isolate GK18)), Q9QR71 | 320,000 tested, 0.6% active; in the data active = inhibition mostly above about 10%, no sharp cut-off; inactive = mostly below about 6.7%;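 also: stock transfer was 7.5 nL into about 10 µL; 0% = median of vehicle wells and 100% = median of positive control wells; one replicate is shown; the record names a cut of 25% in any replicate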
Numbers without * were called inactive; ? = inconclusive; · = no result given; & = joins results of further samples.

SMILES	UCH37 inh	Bfl-1 A1 inh	Beta cell apopt	B2AR ag	RanGTP-Imp inh	T cruzi repl	Calb FLC	LANA-H2A inh
COc1ccc(OC(C)C(=O)Nc2ccc(F)cc2F)cc1 (configuration not stated)	0.1	0.7	1	4	-7.1	-10	7	3.8
CCC(C)(C)n1nnnc1C(c1ccc2ncccc2c1)N1CCN(Cc2ccc3c(c2)OCO3)CC1 (configuration not stated)	3.2	0.0	-3	6	6.1	27	-9	-2.9
COc1ccc(NC(=O)/C(=C\c2ccccc2)NC(=O)c2ccco2)cc1	3.8	-0.3	-2	13	6.2	7	2	0.7
O=C(Nc1ncc(Cc2ccc(Cl)cc2Cl)s1)c1ccc([N+](=O)[O-])cc1	0.9	0.5	39	6	0.9	26	-10	-2.6
CC(C)[C@H](CO)N(Cc1cccc(F)c1)c1nc(Nc2cccc(Cl)c2)c2ncn(C(C)C)c2n1	-0.6	-0.8	23	3	0.2	36	9	-1.3
COc1ccc(Cl)cc1NC(=S)NCc1ccc(S(N)(=O)=O)cc1	2.0	0.5	-3	1	4.4	-12	-8	-1.1
CCN(CC)CCn1c2c(c(SCC(=O)Nc3ccc(C)c(F)c3)nc1=O)CCCC2	0.5	-0.3	1	-8	3.4	24	-5	2.9
Cc1cccc(NC(=S)NCCSc2ccc(Cl)cc2)c1	0.9	2.5	0	1	-1.7	34	-31	-0.8
Cc1ccc(S(=O)(=O)N(C)C)cc1NC(=S)NC(=O)C12CC3CC(CC(C3)C1)C2	-1.3	-0.4	·	7	1.7	4	-1	-6.6
CCOC(=O)CN1NC2(CCCC(C)C2)NC1=S (configuration not stated)	2.5	1.2	-6	0	?	9	-6	-1.5
COc1cc(NC(=S)Nc2cccnc2)cc(OC)c1OC	3.4	-0.5	-6	5	2.0	-17	-1	-0.9
CN(C)c1ccnc2c[cH-]cc12.[Fe].c1ccc(-[c-]2[c-](-c3ccccc3)[c-](-c3ccccc3)[c-](-c3ccccc3)[c-]2-c2ccccc2)cc1 (configuration not stated)	-0.4&1.8	2.3&0.5	35&36	1&6	5.9&-0.1	31&17	11&-3	-0.9&3.2
COC(=O)c1ccc(CN2CCC(Oc3ccc(C(=O)N4CCCCC4)cc3)CC2)cc1	3.8	-0.6	-2	4	?	20	-23	-0.9
CC(=C\C(=O)O)/C(=C/c1ccccc1)C(=O)O	3.2	0.9	·	-4	4.1	-11	-3	2.6
O=S(=O)(N1CCOCC1)n1c(Cc2ccccc2)nc2ccccc21	5.3	-0.2	-5	0	-4.7	25	-7	3.0
COc1ccc(-c2nnc(SCC(=O)NC(C)C)n2CC2CCCO2)cc1OC (configuration not stated)	0.3	1.4	-3	0	1.6	-1	20	3.7
Cc1cc(C)n(CC(=O)NNC(=O)CC(C)c2ccccc2)n1 (configuration not stated)	2.1	0.3	1	0	·	·	·	·
CCCc1nc(SCC(=O)N2CCCC2)c2c(=O)n(C)c(=O)n(C)c2n1	1.9	0.9	-8	-49	4.1	-29	17	1.3
CC(=O)Nc1ccc(Nc2ncc([N+](=O)[O-])c(Nc3ccc(NC(C)=O)cc3)n2)cc1	5.9	0.1	3	-1	5.8	-34	-5	-3.8
O=[N+]([O-])c1ccc(NCCNCCOc2nonc2-c2ccccc2)c([N+](=O)[O-])c1	8.0	-0.3	4	1	-9.6	23	-10	-2.0
N#C/C(=C\c1c(Cl)cccc1Cl)c1nc2ccccc2o1	3.8	1.0	9	-3	-1.3	16	-15	-0.6
Cc1ccc(S(=O)(=O)c2nc(S(C)(=O)=O)sc2N2CCC(O)CC2)cc1	4.5	0.5	-5	-2	5.2	?	0	2.6
CN(CC1CCOCC1)C(=O)CC1C(=O)NCCN1Cc1ccc(-c2ccccc2)cc1 (configuration not stated)	1.3	-1.0	-3	4	7.3	12	-5	-2.8
COc1ccccc1NC(=S)N1CCN(Cc2ccccc2)CC1	1.9	-0.4	-4	-1	1.2	-9	2	-0.3
CCCCSc1nc(C)c(CC(=O)O)c(=O)[nH]1	-0.4	0.2	-4	-3	2.4	-7	-5	-2.7

Some of the entries so far, with values under each structure.
Order of results: UCH37 inh	Bfl-1 A1 inh	Beta cell apopt	B2AR ag	RanGTP-Imp inh	T cruzi repl	Calb FLC	LANA-H2A inh
> COc1ccc(OC(C)C(=O)Nc2ccc(F)cc2F)cc1 (configuration not stated)
→ 0.1	0.7	1	4	-7.1	-10	7	3.8
> CCC(C)(C)n1nnnc1C(c1ccc2ncccc2c1)N1CCN(Cc2ccc3c(c2)OCO3)CC1 (configuration not stated)
→ 3.2	0.0	-3	6	6.1	27	-9	-2.9
> COc1ccc(NC(=O)/C(=C\c2ccccc2)NC(=O)c2ccco2)cc1
→ 3.8	-0.3	-2	13	6.2	7	2	0.7
> O=C(Nc1ncc(Cc2ccc(Cl)cc2Cl)s1)c1ccc([N+](=O)[O-])cc1
→ 0.9	0.5	39	6	0.9	26	-10	-2.6
> CC(C)[C@H](CO)N(Cc1cccc(F)c1)c1nc(Nc2cccc(Cl)c2)c2ncn(C(C)C)c2n1
→ -0.6	-0.8	23	3	0.2	36	9	-1.3
> COc1ccc(Cl)cc1NC(=S)NCc1ccc(S(N)(=O)=O)cc1
→ 2.0	0.5	-3	1	4.4	-12	-8	-1.1
> CCN(CC)CCn1c2c(c(SCC(=O)Nc3ccc(C)c(F)c3)nc1=O)CCCC2
→ 0.5	-0.3	1	-8	3.4	24	-5	2.9
> Cc1cccc(NC(=S)NCCSc2ccc(Cl)cc2)c1
→ 0.9	2.5	0	1	-1.7	34	-31	-0.8
> Cc1ccc(S(=O)(=O)N(C)C)cc1NC(=S)NC(=O)C12CC3CC(CC(C3)C1)C2
→ -1.3	-0.4	·	7	1.7	4	-1	-6.6
> CCOC(=O)CN1NC2(CCCC(C)C2)NC1=S (configuration not stated)
→ 2.5	1.2	-6	0	?	9	-6	-1.5
> COc1cc(NC(=S)Nc2cccnc2)cc(OC)c1OC
→ 3.4	-0.5	-6	5	2.0	-17	-1	-0.9
> CN(C)c1ccnc2c[cH-]cc12.[Fe].c1ccc(-[c-]2[c-](-c3ccccc3)[c-](-c3ccccc3)[c-](-c3ccccc3)[c-]2-c2ccccc2)cc1 (configuration not stated)
→ -0.4&1.8	2.3&0.5	35&36	1&6	5.9&-0.1	31&17	11&-3	-0.9&3.2
> COC(=O)c1ccc(CN2CCC(Oc3ccc(C(=O)N4CCCCC4)cc3)CC2)cc1
→ 3.8	-0.6	-2	4	?	20	-23	-0.9

Next section:
SMILES	UCH37 inh	Bfl-1 A1 inh	Beta cell apopt	B2AR ag	RanGTP-Imp inh	T cruzi repl	Calb FLC	LANA-H2A inh
Cc1ccccc1CN1CCN(Cc2cc3ccccc3o2)CC1CCO (configuration not stated)	2.5	1.0	-6	-5	-4.1	0	-3	-1.3
CC(NC(=O)C(=O)NN=C1CCCCCCCCCCC1)c1ccccc1 (configuration not stated)	4.6	0.3	2	-3	4.6	-4	-2	12*
CC(C)C(C)NC(=O)COc1ncnc2ccccc12 (configuration not stated)	-0.4	-0.5	-3	-11	4.4	0	3	-6.5
CCC/C(=C1/c2ccccc2C(=O)N1c1ccccc1)c1ccc(O[C@@H]2CCCCO2)cc1	1.2	0.0	5	2	·	·	·	0.2
O=C(Nc1ccc(-n2cccc2)cc1)C1CC1	1.9	-0.3	-1	4	-1.8	2	3	-2.1
COc1ccc([C@@H]2C[C@@H](c3ccccc3)Oc3cc(OC)cc(OC)c32)cc1	3.5	·	·	3	0.2	28	5	·
CNc1nc(Nc2ccc([N+](=O)[O-])cc2)nc(OCC(F)(F)F)n1	2.8	0.6	·	0	2.8	6	-2	4.2
CCN(CC)CCCNC(=S)N(Cc1cccnc1)Cc1cc2cccc(C)c2[nH]c1=O	1.0	0.1	-7	-6	-3.2	-14	4	-4.2
CC(C)(C)c1ccc(NNC(=O)C2CCC2)cc1	·	-0.2	109*	-10	2.8	13	-9	-0.2
N/C(=N\OC(=O)COc1ccccc1)c1cccnc1	3.5	-2.5	-5	-2	-2.3	-2	6	-8.3
Cc1[nH]nc(N)c1-c1ccc(Cl)cc1	0.9	0.7	3	-1	1.7	-6	-11	-3.3
Cc1cc(C)nc(N2CCCC(C(=O)NCc3ccc4c(c3)OCO4)C2)n1 (configuration not stated)	-0.9	0.4	-2	-1	1.6	-1	-31	-5.4
O=C1CCCN1CCCNS(=O)(=O)c1cccc(F)c1	-2.3	0.4	-3	-4	-1.8	-19	0	·
Cc1cc(NC(=O)CCC(=O)N(Cc2cccs2)C(C(=O)NC2CCCC2)c2ccccc2)no1 (configuration not stated)	1.4	-0.3	-2	-8	2.3	17	34	-1.6
CCOCCCNC(=O)c1cc(Cl)c(NC(=O)C2=C(C)OCCS2)cc1OC	0.2	0.4	-1	30	1.8	10	5	7.2
CCCNC(=O)C(=O)Nc1cc2c3c(c1)CCC(=O)N3CCC2	0.1	1.1	0	3	0.2	-20	9	9.0
COCCCN1C(=O)c2ccc(C(=O)Nc3ccc(C)cc3C)cc2C1=O	2.4	0.2	5	-3	0.0	-5	9	-7.7
Cc1cc(C)cc(NC(=S)N2CCCC2)c1	-0.5	-0.1	-1	2	·	·	-2	3.4
CN(Cc1ccccc1)C(=O)c1ccc(NC(=O)Cc2cccc(NC(=O)C3CCCN(C(=O)C4CCC4)C3)c2)cc1 (configuration not stated)	0.2	0.5	-6	-8	·	·	·	-3.2
COc1cccc(NC(=O)c2cccc(N3C(=O)C4C5C=CC(C5)C4C3=O)c2)c1 (configuration not stated)	-0.1	-3.8	-8	17	5.8	9	4	-3.5
c1ccc(-c2nc(N3CCN(c4ccccc4)CC3)nc(-n3ccnc3)n2)cc1	-2.6	0.2	·	1	-0.4	60*	11	3.5
O=C(COc1ccc2c3c(c(=O)oc2c1)CCC3)NCCCN1CCOCC1	-9.8	0.7	-1	-2	1.4	-17	-4	2.2
CCCCOc1ccc(C(=O)NN2CCN(C)CC2)cc1	5.0	-0.9	4	-3	-0.9	44	-4	-0.1
